# PABP FP inh: blocks human PABP binding to poly(A) RNA; 1% of 290,000 active; inhibition, % at 35 µM; P11940; AID 2014; fluorescence polarization;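 active = 50% or more with normal probe brightness, or confirmed in later tests; inconclusive = above 50% with abnormal brightness, or retests that disagree; inactive = below 50% or failed in later tests; about a fifth of its hits are not listed in these tables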;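 note: calls also rest on retests at 20 µM and on dose response follow-up; controls were probe without protein and protein plus probe with vehicle; some compounds called inactive have numbers as strong as hits; many hits fall short of the cut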
# Target sequence (P11940 whole entry, looked up): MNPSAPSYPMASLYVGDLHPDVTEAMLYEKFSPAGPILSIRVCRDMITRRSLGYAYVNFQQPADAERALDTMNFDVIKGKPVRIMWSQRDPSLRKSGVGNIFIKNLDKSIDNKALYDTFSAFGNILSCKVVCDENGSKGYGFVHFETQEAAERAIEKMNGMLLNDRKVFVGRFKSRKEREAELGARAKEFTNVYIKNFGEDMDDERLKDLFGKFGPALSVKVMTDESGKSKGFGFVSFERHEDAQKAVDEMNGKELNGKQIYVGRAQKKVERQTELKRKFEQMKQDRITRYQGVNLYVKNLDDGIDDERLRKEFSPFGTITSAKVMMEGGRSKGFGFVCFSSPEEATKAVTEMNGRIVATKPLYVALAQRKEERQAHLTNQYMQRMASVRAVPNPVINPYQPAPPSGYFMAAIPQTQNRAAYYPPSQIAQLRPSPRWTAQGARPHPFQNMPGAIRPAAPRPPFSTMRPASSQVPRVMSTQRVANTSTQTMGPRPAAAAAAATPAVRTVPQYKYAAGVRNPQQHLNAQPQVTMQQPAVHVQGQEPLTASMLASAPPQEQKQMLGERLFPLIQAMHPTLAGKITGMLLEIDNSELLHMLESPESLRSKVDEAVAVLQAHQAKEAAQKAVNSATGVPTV
# UUG fidelity: modulators of start codon recognition fidelity in yeast; activity score, % at 18.7 µM; S. cerevisiae UUG-firefly luciferase reporter, luminescence/redox ratio; 0.13% of 350,000 active;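 active = replicate mean at a twofold rise or more, about +100% in these data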;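 note: firefly luciferase made from a UUG start codon reports start codon fidelity; reporter light over untreated wells divided by growth signal over untreated wells; some hits fall short of that in this replicate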
# CSC inhib: cancer stem cell inhibition; 1.1% of 300,000 active; AID 2717; inhibition, % at 7.5 µM; cancer stem cell-like cells viability, luminescence;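 active = mean at 75% or more and at least half the replicates too; inconclusive = mean and replicates disagree; tested in HMLE shEcad cells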;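 note: 0% = median of negative and 100% = median of positive control wells; the first replicate is given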
# eIF4H inh: inhibitors of RNA binding by human eIF4H | Q15056 | eIF4H fluorescence polarization binding assay | inhibition, % at 35 µM | 0.94% of 290,000 active;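 active = 50% or more with normal probe brightness, or confirmed in later tests; inconclusive = above 50% with abnormal brightness, or retests that disagree; inactive = below 50% or failed in later tests; about a fifth of its hits are not listed in these tables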;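 note: calls also rest on retests at 20 µM and on dose response follow-up; 0% = protein and probe with vehicle and 100% = probe without protein; strong numbers were not always called active; many hits fall short of the cut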
# Rce1 inhib: blocks yeast Ras-converting enzyme; 0.27% of 290,000 active; calls only; yeast membranes, quenched prenylated peptide cleavage fluorescence;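 active = fall in fluorescence gain of 50% or more versus controls, with final raw signal at or below 3038400; inconclusive = same 50% fall but final raw signal above 3038400; inactive = fall in fluorescence gain under 50%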;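 note: plate controls were neutral control wells for no effect and wells lacking membranes for full effect; tested at 10 µM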
# Target sequence (Q03530 whole entry, looked up): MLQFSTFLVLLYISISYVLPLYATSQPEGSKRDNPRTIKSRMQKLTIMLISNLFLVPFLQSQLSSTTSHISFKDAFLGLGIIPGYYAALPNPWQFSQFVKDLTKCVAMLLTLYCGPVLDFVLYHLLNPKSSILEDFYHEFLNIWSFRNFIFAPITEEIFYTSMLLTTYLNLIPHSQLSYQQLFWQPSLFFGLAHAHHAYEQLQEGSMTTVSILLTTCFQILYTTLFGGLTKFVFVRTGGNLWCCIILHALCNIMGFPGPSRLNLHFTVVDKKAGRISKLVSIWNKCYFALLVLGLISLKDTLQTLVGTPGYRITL
# Env fusion inh: blocks HIV Env-driven cell-cell fusion; AID 651610; 1.1% of 360,000 active; HeLa-JRFL Env/CEM21 cell fusion, luciferase; inhibition, % at 12.3 µM;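 active = mean replicate inhibition score of at least 50 and every replicate individually at or above 50; inconclusive = only one of the two criteria met; inactive = mean below 50 and not all replicates reaching 50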;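 note: 0% = plate neutral controls and 100% = maraviroc near 300 nM; one replicate is shown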
# MT1-MMP act inh: MT1-MMP (human) activation inhibition; AID 651647; GFP/RFP ratio change, % at 20 µM; 0.061% of 360,000 active; P50281; HT1080 RFP-PRO-GFP cells, GFP/RFP ratio fluorescence, overnight; percent of plate control window, DMSO zero;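 active = GFP/RFP ratio change of at least 30% with cell ATP level not reduced by more than half and red fluorescence within 50% of control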; note: strong numbers were not always called active
#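 Assay system: RFP-PRO-GFP reporter HT1080 cells; read-out basis: GFP/RFP fluorescence ratio; benchmarks: DMSO wells and RFP-L50D-GFP cells; doses: 20 µM single dose, 1% DMSO; schedule: overnight cell settling, then overnight compound exposure, 37 °C, 5% CO2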
# MT1-MMP act inh RFP: further read-out of MT1-MMP act inh, marked with its call; RFP signal change, %; measured here: RFP expression control read;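 0 = vehicle wells; hits needed this value within 50% of zero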
# Starred values were filed as active, the others as inactive; i = inactive; ? = inconclusive; · = no result given; + = active, no number; & = joins results of further samples. A portion of the library (hit frequency here may not be typical).
SMILES,PABP FP inh,UUG fidelity,CSC inhib,eIF4H inh,Rce1 inhib,Env fusion inh,MT1-MMP act inh,MT1-MMP act inh RFP
O=C(NCC1CCCO1)c1cnn2c(C(F)F)cc(C3CC3)nc12 (configuration not stated),-2,26,-4,-4,i,-28,0,2
COc1cc(OC)c(OC)cc1/C=N/n1c(C)nnc1C,-4,-12,-3,2,i,·,-3,2
O=C(c1ccco1)N1CCN(CCOc2ccc(F)cc2)CC1,-9,-5,-11,5,i,·,-1,1
Cc1ccc(NC(=O)c2cccc(S(=O)(=O)N3CCN(C)CC3)c2)cc1F,-4,10,-18,-2,i,-2,3,-4
CC(C)(C)N(Cc1ccccc1)C(=O)c1cccs1,5,-20,12,-8,i,-13,-4,-2
Cn1c(-c2c(N)n(C3CCCC3)c3nc4ccccc4nc23)nc2ccccc21,4,-29,68,6,i,-47,-24,-1
O=S(=O)(c1ccc(Cl)cc1)N1c2ccccc2Oc2nc3ccccc3nc21,-1,-21,38,3,i,·,-3,-11
CCOC(=O)C1CCN(S(=O)(=O)c2ccc(CC)cc2)CC1,8,·,-8,6,i,-4,6,1
CCOC(=O)c1[nH]c2ccccc2c1NC(=O)NC(C)C,-1,-3,-6,-3,i,0,-1,0
O=C(CSc1nc2[nH]ncc2c(=O)[nH]1)c1ccccc1,-23,·,-7,3,i,7,5,4
CCOC(=O)CN1C(=O)CN(c2ccc(C)cc2)C1=O,-9,·,5,-9,i,-10,-2,0
CCCn1nc(C(=O)Nc2ccc(S(=O)(=O)Nc3nccs3)cc2)c2ccccc2c1=O,75*,-12,4,58*,i,·,-4,-2
COc1cc(OC)cc(C(=O)Nc2ccc(S(=O)(=O)Nc3ncccn3)cc2)c1,-3,·,-14,-13,i,-16,1,5
COc1ccc(N(C(=O)Cn2nnc(-c3ccc(F)cc3)n2)C(C)C(=O)NC2CCCC2)cc1OC (configuration not stated),-2,-10,-7,-4,·,5,-1,1
COc1ccc2cc(CN(Cc3ccco3)Cc3nnnn3C3CCCCC3)c(=O)[nH]c2c1,9,-7,-3,1,i,·,-9,-9
CS(C)(=O)=NS(=O)(=O)c1ccc(Cl)cc1,1,-15,15,-9,·,7,1,1
CC(=O)NCC(c1cccs1)S(=O)(=O)c1ccc(F)cc1 (configuration not stated),·,-12,3,·,i,1,-2,5
Cc1cc(C(=O)N2CCCC(N3CCN(c4ccccc4C)CC3)C2)n(C)n1 (configuration not stated),-6,-7,2,-15,i,4,-1,1
CCOC(=O)CCCNC(=O)CCNC(=O)c1ccc(OC(C)C)cc1,9,-16,·,-7,·,·,-2,3
COC(=O)/C(=C/c1ccc2c(c1)c1ccccc1n2C)NC(=O)c1ccccc1,0,·,1,3,i,·,-3,-4
O=C(O)C1C2CCC(C2)C1C(=O)NCCc1ccc(F)cc1 (configuration not stated),10,3,-18,-5,i,6,-3,1
CC(C)c1ccc(N(C(=O)c2csnn2)C(C(=O)NC2CCCC2)c2ccncc2)cc1 (configuration not stated),-6,-17,-1,-7,·,77*,-3,-1
CSc1ccccc1OCc1cc(C(=O)N(Cc2nccn2C)C(C)C)no1,-6,-10,-10,-4,·,-33,-1,2
COc1ccc(CNn2c(C)nc3ccccc3c2=O)cc1,-4,4,9,6,i,21,-1,1
Cn1c(/C=C(\C#N)C(N)=S)ccc1-c1ccc(Br)cc1,-6,·,·,?,·,37,-43,-4
O=C(CSc1nnnn1Cc1ccccc1)Nc1ccccc1,-2,7,-8,-9,i,8,-1,2
Cc1nc2c(C)cccn2c1/C(O)=C1\C(=O)C(=O)N(CCN(C)C)C1c1ccco1 (configuration not stated),19,·,-2,20,i,-5,2,3
CC(=O)N1C(c2ccccc2O)C[C@]2(C)CC(=O)NC12 (some centres not stated),10,·,-7,7,i,4,1,2
Cn1ccnc1SCC(=O)c1ccc(Cl)cc1,-8,-17,-2,4,i,-14,1,7
COc1ccccc1N1CCN(C(=O)C2CCN(C(=O)c3ccccc3Cl)CC2)CC1,4,22,-14,0,i,16,5,-3
CCC1(CC)N([O-])C(C)=C(c2ccccc2)[N+]1=O,-5,-20,·,-5,i,·,0,1
Cc1ccc(-c2nnc(-c3cc(C)on3)o2)cc1,-7,-29,-6,2,i,-46,-2,-4
CC1(C)CC(=O)N(c2ccc(Cl)c(Cl)c2)C(=O)C1,3,-7,-24,-2,i,-16,-1,-4
NC(=O)c1c(NC(NC(=O)c2ccco2)C(=O)c2ccc(Cl)cc2)sc2c1CCCC2 (configuration not stated),3,-4,7,4,i,-48,-1,2
COc1ccc(C)cc1NC(=O)CN1CCN(c2ccccc2F)CC1,-1,-17,4,-9,·,·,0,-1
O=C1c2oc3ccccc3c(=O)c2C(c2cccnc2)N1Cc1ccco1 (configuration not stated),-5,-17,-14,3,i,-58,2,5
COc1cc(-c2nc3ccccn3c2/N=C/c2cc(OC)c(OC)c(OC)c2)ccc1O,·,0,-20,·,+,·,6,4
O=C(Oc1ccc2ccccc2c1Br)N1CCCCCC1,-5,-52,-17,-12,i,-201,3,-2
COc1ccccc1NC(=O)OCC#CCOC(=O)Nc1ccccc1OC,5,-17,10,-1,i,-2,-2,-2
COc1ccc(-n2nc(N)c(C(N)=O)n2)cc1,3,·,2,-8,i,-23,4,4
Cc1ccc(C(=O)COC(=O)C2CC(=O)N(c3nc(-c4ccccc4)cs3)C2)cc1 (configuration not stated),-7,6,-6,-9,i,-15,-3,2
Cc1cc(C)c(C)c(OCC(=O)N2CCOCC2)c1,15,-15,-9,-4,i,·,-5,-2
COc1ccc(OC)c(N2C(N)=C(C#N)C(c3ccc(OC)c(O)c3)C3=C2CC(C)(C)CC3=O)c1 (configuration not stated),6,·,11,-2,i,·,·,·
Cc1nc(C(F)(F)F)ccc1C(=O)N1CCC1(C)C(=O)NS(=O)(=O)c1ccccc1 (configuration not stated),·,-33,·,·,·,10,2,6
CCCCCCn1c(=O)n2n(c1=O)[C@@H]1CN(S(=O)(=O)c3ccc(C)cc3)C[C@]1(O)[C@@H](OC(=O)NC1CCCC1)C2,·,3,·,·,·,-213,1,-3
CCOC(=O)N1CCN(C(=O)CCCn2c(=S)[nH]c3ccsc3c2=O)CC1,7,·,-3,-5,·,9,-1,2
Cn1c(=O)[nH]c(=O)c2c1nc(Br)n2Cc1ccccc1F,-7,-9,-5,11,i,·,8,4
CCN(CC)C(=O)CCSc1nnc(-c2ccncc2)o1,-3,·,2,0,i,3,-2,3
O=C(NCc1ccccc1)C(c1ccc(F)cc1)N(Cc1cccs1)C(=O)c1cnccn1 (configuration not stated),1,·,-7,8,i,-4,2,-1
CN(C)CC(C)(C)CNS(=O)(=O)c1cccc2nsnc12,9,·,-5,7,i,·,3,5
CC(C)(O)[C@H](O)COc1c2occc2cc2ccc(=O)oc12,6,-3,10,2,i,-7,10,4
COC(=O)[C@]1(C)N[C@H](CN(C)C(=O)c2ccc(C)cc2)[C@@H]2C(=O)N(Cc3ccccc3)C(=O)[C@@H]21,·,10,-3,·,·,-15,-1,2
CC(=O)c1c(C(C)=O)c(C)n(NC(=O)c2ccncc2)c1C,-8,·,-15,0,i,·,-2,2
COc1ccc(C#Cc2ccc3c(=O)c4ccccc4n(C)c3c2)cc1,-3,·,40,27,i,·,·,·
COc1cc(C(=O)NCCCNc2ccc([N+](=O)[O-])cc2)cc(OC)c1OC,-13,·,-1,5,i,·,3,2
CN1CCN(c2nc(-c3cccnc3)nc3ccccc23)CC1,0,-29,-4,8,i,·,-16,-3
CC(O)[C@H]1CNC(=O)C(=O)N1CC1(c2ccccc2)CC1 (some centres not stated),17,-21,-19,-2,i,-10,2,2
NCC(O)(c1ccc(Cl)cc1)c1ccc(Cl)cc1,-6,3,0,-4,i,11,3,4
Nc1c(-c2ccccc2)c(CN2CCOCC2)nn1-c1ccccc1,9,·,-8,4,i,6,-8,-4
CCOc1ccc(Br)cc1S(=O)(=O)Nc1cccc(S(=O)(=O)Nc2ccccc2C(=O)O)c1,·,-12,3,·,·,·,1,3
# (next part)
SMILES,PABP FP inh,UUG fidelity,CSC inhib,eIF4H inh,Rce1 inhib,Env fusion inh,MT1-MMP act inh,MT1-MMP act inh RFP
COc1ccc(CCNC(=O)c2cc(-c3ccc(Cl)c(Cl)c3)oc2C)cc1,5,·,?,-10,i,8,2,-1
Cc1cc(C)c2c(=O)[nH]n(C3CCCCCC3)c2n1,0,·,-1,1,i,-3,3,2
Cc1c(OC(C)C(=O)NCC2CCC(C(=O)O)CC2)ccc2c1oc(=O)c1ccccc12 (configuration not stated),15,-1,0,10,i,·,10,-4
CC(=O)OC[C@H]1O[C@@H](Sc2cccc3cccnc23)[C@H](OC(C)=O)[C@@H](OC(C)=O)[C@H]1OC(C)=O,-6,-14&1,0,-5,i,·,-2,5
O=C1N(c2ccccc2)C(=Nc2ccccc2)SC12CC2,0,·,-5,0,i,10,1,-2
CC1Cc2ccccc2N1C(=O)CSc1nnc(Cc2ccccc2)n1CCc1ccccc1 (configuration not stated),-2,-15,·,-5,i,·,-5,-11
O=C(Cc1ccccc1)NC1CCN(S(=O)(=O)c2ccc(C(=O)O)cc2)CC1,-10,-30,-7,-10,i,·,6,7
CCN(CC)CCn1c2c(c(SCC(=O)Nc3ccc4c(c3)OCO4)nc1=O)CCC2,·,-7,6,·,i,3,-3,3
OC(c1cc(F)cc(Cl)c1)c1ncc(-c2ccccc2Cl)[nH]1 (configuration not stated),·,-16,·,·,·,0,-2,-4
COc1cc(/C=C/C(=O)OCC(=O)N2CCCCCC2)cc(OC)c1OC,·,-3,·,·,·,12,3,1
O=[N+]([O-])c1ccccc1N=Nc1ccc(O)cc1,·,·,-10,·,i,-31,-1,2
CCc1nnc(NC(=O)CCNC(=O)c2ccccc2Cl)s1,-7,-17,10,-8,i,-1,0,-3
Cc1cc(N2C(=O)C(O)=C(C(=O)c3ccco3)C2c2cccc(O)c2)no1 (configuration not stated),21,-16,-11,-1,i,-4,-3,-3
COc1ccc(CNCC(O)(c2ccccc2)c2ccc(F)cc2)cc1OC (configuration not stated),-8,-2,-2,-4,i,36,-1,-11
CC1(c2ccc([N+](=O)[O-])cc2)NC(=O)N(CC(=O)c2ccc3c(c2)OCO3)C1=O (configuration not stated),·,-17,-17,·,i,11,1,4
Cc1ccc(NC(=O)c2cccc3ccccc23)cc1,-2,-16,23,7,i,-29,-1,0
O=C(OCCN=C1NS(=O)(=O)c2ccccc21)c1ccncc1,-1,5,-12,-7,i,-3,0,0
Cc1c(NC(=S)NC(=O)c2ccc(COc3ccccc3)cc2)cccc1C(=O)O,14,-10,4,8,i,-2,-4,0
COCCCNC(=S)NNC(=O)c1cc(-c2ccncc2)nc2ccccc12,-2,-23,10,11,i,·,0,1
Cc1ccccc1NC(=O)Nc1nnc(Cc2ccc([N+](=O)[O-])cc2)s1,-2,-16,·,-8,i,22,-3,3

# Full records from above:
# Listed for O=C(CSc1nnnn1Cc1ccccc1)Nc1ccccc1 = PABP FP inh: -2; UUG fidelity: 7; CSC inhib: -8; eIF4H inh: -9; Rce1 inhib: i; Env fusion inh: 8; MT1-MMP act inh: -1; MT1-MMP act inh RFP: 2
# Listed for COc1ccc(C#Cc2ccc3c(=O)c4ccccc4n(C)c3c2)cc1 = PABP FP inh: -3; UUG fidelity: ·; CSC inhib: 40; eIF4H inh: 27; Rce1 inhib: i; Env fusion inh: ·; MT1-MMP act inh: ·; MT1-MMP act inh RFP: ·
